# Compound activity (PubChem BioAssay)
# B2AR ag: beta2AR agonists driving receptor internalization, primary screen, cell-based, FAP fluorogen, flow cytometry | response, % (test concentration not listed) | 0.43% of 340,000 active | Beta-2 adrenergic receptor (Homo sapiens), P07550 | Am2.2-beta2AR cells; reference of the scale not given here | AID 504454, 2011;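 active means response above a set limit, near 3 SD of response in nonfluorescent compounds, cut at about 42% in these data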;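 further: stock transfer was 100 nL into about 11 µL; a reference agonist was the positive control; negative values mostly stem from fluorescent compounds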
# E coli growth: E. coli growth inhibition, primary screen, OD600; Escherichia coli growth, 23 h; active compounds read low; OD600 absorbance (test concentration not listed); 0.21% of 330,000 active; AID 1053175, 2014;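 active means OD600 absorbance below the run mean of sample wells minus 3.6 SD, in any replicate, cut at about 0.56 in these data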;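 further: stock transfer was 300 nL into about 60 µL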
# Vif A3G: inhibitors of Vif binding to APOBEC3G peptide, primary screen, biochemical, TR-FRET, GST-Vif 1-94, biotin-A3G peptide, dose response retest (AID 1117319) | one-dose inhibition, %; IC50 in µM for titrated hits | 0.57% of 260,000 active | TR-FRET GST-Vif / biotin-A3G peptide binding; higher % means a stronger effect; test concentration not given here; strong numbers were not always called active | Virion infectivity factor (Human immunodeficiency virus type 1 group M subtype B (isolate …;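 active means above the screen mean plus three standard deviations and confirmed in dose response; inconclusive means results disagree or hit not tested in dose response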;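 further: Vif residues 1-94 fused to GST binding biotinylated APOBEC3G peptide 110-148; 0% = full assay without inhibitor and 100% = GST in place of GST-Vif; retest series ran down from 100 µM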
# A1 inh: caspase 3/7 activation in MEF A1-2A-BIM cells, primary screen, A1 inhibitor project, cell-based, luminescence, HTS. Caspase-Glo 3/7 luminescence, 3 h; percent of clofoctol response, vehicle zero. caspase activation, % (no concentration beside the values). 0.066% of 330,000 active;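 active means over half of replicate activation scores above 10%, or exactly half above 10 with the replicate mean above 10; inconclusive means replicate mean below 10 yet half the replicates above 10; inactive means over half of replicates below 10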;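 further: wells of about 30 µL received 50 nL stock; many hits fall short of the cut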
# UCH37 inh: inhibitors of human UCH37 deubiquitinase, primary screen, biochemical, Ub-AMC cleavage, fluorescence; Ubiquitin carboxyl-terminal hydrolase isozyme L5 (Homo sapiens), Q9Y5K5; purified proteasome/UCH37; inhibition, % (test concentration not listed); 0.33% of 330,000 active;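 active means mean of two replicates above 20%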;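 further: 0% = compound-free wells with enzyme and 100% = wells lacking proteasome; stock transfer was 100 nL into about 20 µL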
#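 Schedule: 30 min plus 25 min, room temperature / Material: human UCH37 within purified proteasomes / Technique: AMC fluorescence intensity at 355/460 nm / Buffer or medium: pH 7.4 Tris-HCl (50 mM) with ovalbumin, ATP-MgCl2, DTT / Controls: wells without proteasome as full block, compound-free enzyme plus substrate as uninhibited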
# HNF4A DNA FP: change in binding of human HNF4A to DNA, primary screen, biochemical, fluorescence polarization, FITC-DNA; Hepatocyte nuclear factor 4-alpha (Homo sapiens), P41235; 1 h; activity change, % at 10 µM; 0.3% of 360,000 active; in the data active means activity change above about 30%, passing the limit was not always enough;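 further: controls were the assay level and a saturating level of protein; the project sought stronger binding though the title names inhibitors; some compounds called inactive have numbers as strong as hits; positive values seem to mean higher polarization but the record does not say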
# LANA-H2B inh: blockers of LANA interaction with H2A/H2B – biochemical, FP readout, HTS, primary screen; Protein LANA1 (Human herpesvirus 8 type P (isolate GK18)), Q9QR71; cell-free LANA-H2A/H2B peptide, fluorescence polarization; inhibition, % (concentration not given with the values); 0.6% of 320,000 active; in the data active means inhibition mostly above about 10%, no sharp cut-off; inactive means mostly below about 6.7%;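 further: stock transfer was 7.5 nL into about 10 µL; 0% = median of vehicle wells and 100% = median of positive control wells; one replicate is shown; the record names a cut of 25% in any replicate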
# Target sequence (Q9QR71 whole entry, looked up): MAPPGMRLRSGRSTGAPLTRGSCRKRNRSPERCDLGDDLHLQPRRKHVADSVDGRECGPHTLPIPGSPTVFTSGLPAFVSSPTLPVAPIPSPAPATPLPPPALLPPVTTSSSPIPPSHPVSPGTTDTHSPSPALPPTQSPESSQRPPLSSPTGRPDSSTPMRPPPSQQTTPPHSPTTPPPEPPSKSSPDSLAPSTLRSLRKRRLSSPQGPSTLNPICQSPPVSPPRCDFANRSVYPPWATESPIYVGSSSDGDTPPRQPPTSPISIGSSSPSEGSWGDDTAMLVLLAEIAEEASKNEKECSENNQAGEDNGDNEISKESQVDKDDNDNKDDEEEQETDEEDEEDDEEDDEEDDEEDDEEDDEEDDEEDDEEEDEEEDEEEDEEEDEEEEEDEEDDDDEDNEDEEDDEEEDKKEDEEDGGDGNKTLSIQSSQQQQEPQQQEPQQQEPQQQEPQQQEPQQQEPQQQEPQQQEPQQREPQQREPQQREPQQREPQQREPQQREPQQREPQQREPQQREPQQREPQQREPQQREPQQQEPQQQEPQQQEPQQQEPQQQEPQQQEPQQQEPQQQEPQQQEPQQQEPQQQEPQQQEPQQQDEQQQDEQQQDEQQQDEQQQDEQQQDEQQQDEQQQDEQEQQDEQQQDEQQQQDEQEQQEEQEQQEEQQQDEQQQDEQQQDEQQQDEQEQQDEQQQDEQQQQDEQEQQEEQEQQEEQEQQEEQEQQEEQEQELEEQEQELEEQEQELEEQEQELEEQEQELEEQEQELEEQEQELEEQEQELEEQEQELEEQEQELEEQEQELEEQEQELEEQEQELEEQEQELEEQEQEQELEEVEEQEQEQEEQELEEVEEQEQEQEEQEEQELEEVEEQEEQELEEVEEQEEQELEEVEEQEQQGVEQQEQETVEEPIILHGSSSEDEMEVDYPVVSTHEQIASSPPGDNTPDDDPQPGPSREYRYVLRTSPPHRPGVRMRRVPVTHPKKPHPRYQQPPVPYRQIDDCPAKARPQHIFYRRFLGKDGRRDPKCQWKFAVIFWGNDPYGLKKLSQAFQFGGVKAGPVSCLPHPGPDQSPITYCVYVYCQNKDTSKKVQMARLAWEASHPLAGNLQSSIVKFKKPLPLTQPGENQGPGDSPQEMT
# The depositor's hits bear a star; i = inactive; u = inconclusive; x = not tested or not shown; & = joins results of further samples.
SMILES,B2AR ag,E coli growth,Vif A3G,A1 inh,UCH37 inh,HNF4A DNA FP,LANA-H2B inh
CCN(C[C@H]1N[C@@](C)(C(=O)OC)[C@H]2C(=O)N(C)C(=O)[C@@H]12)C(=O)Nc1ccc(OC)cc1,3,0.68,-5%,2.0,0.1,-3.4,-1.3
COc1cc(S(=O)(=O)N2CCOCC2)ccc1NC(=O)CSc1nnc(N)s1,1,0.71,-2%,1.2,30*,0.7,-1.5
COC(=O)c1[nH]c2cccc(C)c2c1NC(=O)CN1CCN(C(=O)c2ccco2)CC1,-12,0.75,6%,-0.3,-3.6,-0.3,-2.3
CCOCCOCCC(C(=O)OCC)P(=O)(c1ccccc1)c1ccccc1 (stereo not drawn),4,0.66,10%,0.3,2.6,-0.5,-3.0
Cc1ccccc1Nc1nc(N)nc(COC(=O)[C@@H](NC(=O)c2ccco2)C(C)C)n1,15,0.68,-1%,x,4.0,4.3,x
CC(C)(C)C(=O)/C=C1\SCC(=O)N1CC(=O)N1CCN(c2ccccc2)CC1,1,0.71,x,2.0,8.9,0.5,-1.7
O=C(NCC(=O)N(c1cccnc1)C(C(=O)NCc1ccco1)c1ccccc1)c1ccco1 (stereo not drawn),3,0.67,27%,-0.2,-0.2,3.2,-3.0
COC(=O)c1ccc(Oc2nc(NC(C)C)nc(NC(C)C)n2)cc1,3,0.67,u,1.0,1.7,-6.3,-4.4
O=C(Oc1ccc(C(=S)N2CCOCC2)cc1)c1cccc([N+](=O)[O-])c1,8,0.64,x,0.4,1.7,0.9,2.8
COc1ccccc1NC(=O)C1=C(C)Nc2ncnn2C1c1cccs1 (stereo not drawn),-7,0.76,0%,0.7,-3.3,0.5,1.6
C/C(=N\NC(=S)NC1CCCCC1)c1cccc(Br)c1,-17,x,15%,2.4,x,1.3,-8.4
CCOc1ncccc1C(=O)Nc1ccc(C)c(S(=O)(=O)N2CCCCCC2)c1,25,0.69,x,-1.0,1.1,0.5,3.1
CCCCC1(C)OC(=O)C(=Cc2ccc(SC)cc2)C(=O)O1 (stereo not drawn),-5,0.66,16%,0.1,2.2,-4.1,-0.1
Cc1occc1C(=O)NCc1ccc2c(c1)OCO2,1,0.73,-1%,-0.7,1.1,4.8,1.4
COc1ccc(OCCSc2ncccn2)cc1,-9,0.69,-7%,-8.2,-1.1,1.4,4.4
COc1ccc(Cl)cc1NS(=O)(=O)c1cccc(C(=O)NC2CC2)c1,1,0.72,x,1.7,4.2,0.1,-0.3
O=C(Cc1cccs1)N1CCN(C(=O)C2CCCO2)CC1 (stereo not drawn),1,0.64,4%,-0.6,-0.6,6.3,5.2
CC1(C)Cc2sc3c(=O)[nH]c(=S)[nH]c3c2CO1,-6,0.67,-2%,1.0,4.6,0.4,1.5
CCN(CC)CCCNC(=O)C1c2ccccc2C(=O)N(CCOC)C1c1ccc(F)cc1 (stereo not drawn),-14,0.74,2%,0.1,3.0,-1.1,-3.7
COc1ccc(C(=O)NC2CCN(S(=O)(=O)c3ccccc3)CC2)cc1,0,0.68,-2%,0.5,2.9,-0.2,0.3

# Shown with bars between the fields: part of the list above.
SMILES | B2AR ag | E coli growth | Vif A3G | A1 inh | UCH37 inh | HNF4A DNA FP | LANA-H2B inh
C/C(=N\NC(=S)NC1CCCCC1)c1cccc(Br)c1 | -17 | x | 15% | 2.4 | x | 1.3 | -8.4
CCOc1ncccc1C(=O)Nc1ccc(C)c(S(=O)(=O)N2CCCCCC2)c1 | 25 | 0.69 | x | -1.0 | 1.1 | 0.5 | 3.1
CCCCC1(C)OC(=O)C(=Cc2ccc(SC)cc2)C(=O)O1 (stereo not drawn) | -5 | 0.66 | 16% | 0.1 | 2.2 | -4.1 | -0.1
Cc1occc1C(=O)NCc1ccc2c(c1)OCO2 | 1 | 0.73 | -1% | -0.7 | 1.1 | 4.8 | 1.4

# Carrying on.
SMILES,B2AR ag,E coli growth,Vif A3G,A1 inh,UCH37 inh,HNF4A DNA FP,LANA-H2B inh
Cc1ccccc1Cn1nc(C)c(NC(=O)c2noc3c2CC(C(C)(C)C)CC3)c1C (stereo not drawn),-11,0.74,0%,-0.5,1.3,-7.1,-2.7
CCOC(=O)C1=C(N)N(c2ccccc2Oc2ccccc2)C(=O)C1,2,0.73,0%,0.2,1.7,-0.8,-6.8
Cc1cc(OCc2cc(C(=O)NCc3csc(C(C)C)n3)no2)cc(C)c1Cl,0,0.71,x,2.5,6.7,8.9,3.1
Cc1csc(NC(=O)CSC2=NS(=O)(=O)c3ccccc3N2)n1,-5,0.63,3%,-0.2,1.0,1.6,2.9
CN(CC(=O)Nc1ccccc1Cl)CC(=O)Nc1sc2c(c1C(N)=O)CCC2,-7,0.69,0%,1.1,0.3,3.9,-1.2
CC(=O)N/C(=C\c1cccc([N+](=O)[O-])c1)C(=O)NC1CCCCC1,4,0.69,x,0.7,0.2,1.4,-5.5
COCc1[nH]nc2c1C(c1sccc1C)C(C#N)=C(N)O2 (stereo not drawn),10,0.75,-4%,0.7,-9.7,2.2,-1.6
Cc1cnc(NC(=O)c2cncc(Br)c2)s1,-7,0.7,1%,-4.3,-3.3,-2.8,-4.4
CCOc1ccc(N2C(=O)CC(N(Cc3ccco3)C(=O)CCC(=O)O)C2=O)cc1 (stereo not drawn),-6,0.7,x,0.5,3.1,-4.6,1.4
CC(C(=O)Nc1ccccc1)c1ccc(-c2ccccc2)c(F)c1 (stereo not drawn),-5,0.74,20%,1.8,-0.8,-1.8,-3.2
CC(C)(C)n1ncc2c(=O)n(CC(=O)N3CCc4ccccc43)cnc21,-6,0.7,1%,-0.2,2.8,-2.3,-5.5
CCOC(=O)COc1cccc2c(=O)n(CC(=O)NCc3ccccc3)ccc12,19,0.68,2%,1.0,-2.9,-2.6,-2.0
COc1ccc(/C=N/NC(=O)c2ccc(F)cc2)cc1CN1CCc2cc(OC)c(OC)cc2C1C (stereo not drawn),8,x,1%,0.3,x,1.9,-4.6
COc1ccccc1N1CCN(C(=O)C2CCN(S(=O)(=O)c3ccccc3F)CC2)CC1,-4,0.68,-2%,1.5,-1.9,3.4,-4.9
CCC(=O)c1ccc(O)cc1,-2,0.66,-2%,0.2,0.6,0.9,4.8
CN(Cc1cnc2nc(N)nc(N)c2n1)c1ccc(C(=O)NC(CCC(=O)O)C(=O)O)cc1 (stereo not drawn),-2,0.67&0.67,49µM*,x,x,-16,x
O=C(COC(=O)CNS(=O)(=O)c1ccc(Br)cc1Cl)Nc1ccc(N2CCOCC2)cc1,6,x,x,0.2,x,5.8,-8.6
COc1ccc(/C=C(\C#N)C(=O)Nc2cc(C)c(Cl)cc2OC)cc1O,14,0.67,29%,0.7,3.0,8.4,-2.2
O=C(CCNS(=O)(=O)c1cccc2nonc12)NCCc1ccc(Cl)cc1,-10,0.71,-3%,0.9,1.9,1.0,-0.1
NNC(=O)C1COc2cc3ccccc3cc2O1 (stereo not drawn),-3,0.65,x,1.1,4.1,-0.4,-3.3
CCOc1ccc(NS(=O)(=O)c2cc(C)c(C)cc2C)cc1,3,0.68,-1%,-0.6,5.4,1.7,3.9
CCCCn1ccnc1C,2,0.65,-9%,3.0,1.5,-2.4,0.5
COc1ccc(S(=O)(=O)N2Cc3ccccc3CC2C(=O)N2CCOCC2)cc1OC (stereo not drawn),-5,0.72,21%,0.6,5.2,-1.6,1.4
CCOc1ccc2cc(S(=O)(=O)N3CCOCC3)ccc2c1,0,0.74,-34%,-0.6,0.6,1.9,-2.5
COc1ccc(NC(=O)C2CC(=O)N(C(C)C)C2)cc1 (stereo not drawn),7,0.71,21%,-0.5,5.0,-1.0,4.6
CCn1c(CNC(=O)c2ccc(OC)c(OC)c2)nnc1SCC(=O)Nc1ccc(OC)cc1,-7,0.63,-3%,-0.3,2.3,-1.6,-6.3
Cc1ccc(-c2csc(-c3cc(C)on3)n2)cc1,-19,0.69,u,-0.8,3.6,5.6,-3.1
CCc1cccc(C)c1NC(=O)CSc1nnc(-c2ccco2)n1N,-11,0.72,3%,0.5,1.7,2.5,-2.6
Cc1cc(NC(=O)/C=C/c2ccco2)ccc1NC(=O)c1ccccc1,-13,0.66,12%,-1.3,5.3,-0.7,-4.9
CC1CCN(c2ccc(C(=O)Nc3nnc(C4CC4)s3)cc2[N+](=O)[O-])CC1,2,0.72,x,-0.4,-3.1,7.9,5.2
Cc1cc2oc(=O)cc(CN3CCN(S(=O)(=O)/C=C/c4ccccc4)CC3)c2cc1C,-4,0.73,x,0.6,-1.3,-0.7,1.7
COc1ccc(S(=O)(=O)Nc2cccnc2)c(C)c1C,3,x,-7%,1.0,x,-2.4,-4.4
COc1ccc2nc(-c3ccccc3)cc(C(=O)OCC(=O)N3CC(C)OC(C)C3)c2c1 (stereo not drawn),5,0.68,103%,-0.7,i,-1.2,2.5
C/C=C\C(=O)Nc1cccc(C2=NOC3(C2)C[C@H](C(N)=O)N(C(=O)Cc2ccc([N+](=O)[O-])cc2)C3)c1 (stereo partly drawn),-6,x,1%,-1.9,-1.0,-0.5,2.5
Cc1ccc(OCC(=O)Nc2ccc3oc(=O)ccc3c2)cc1C,3,0.7,x,0.0,-18,-1.0,-0.1
COc1ccc(N2CCN(C(=O)c3ccc(SC)cc3OC)CC2)cc1,22,0.67,-5%,0.6,1.6,-2.7,-0.5
O=C(CSc1ncccc1C(=O)O)NC12CC3CC(CC(C3)C1)C2,4,0.7,5%,0.2,3.3,-8.9,-4.8
CCOc1cc2[nH]c(=O)n(CC3CCC(C(=O)NCCC(C)C)CC3)c(=O)c2cc1OCC (stereo not drawn),0,0.69,x,x,2.9,8.5,x
OCCN1CCN(CC/C=C2/c3ccccc3CSc3ccccc32)CC1,6,0.67,x,1.1,9.5,0.2,-0.9
NC(=O)c1cc(S(=O)(=O)Nc2ccccc2)cs1,3,0.67,3%,2.1,2.1,-0.5,-1.0
O=C(O[C@H]1[C@H](Cc2ccccc2)NS(=O)(=O)[C@H]2C[C@@H]3C=C[C@]12O3)c1ccc([N+](=O)[O-])cc1,6,x,x,0.7,6.3,-4.3,1.6
CC1CCN(S(=O)(=O)c2ccc(NC(=O)Cc3cccs3)cc2)CC1,0,0.64,13%,-0.4,2.2,-2.6,-4.8
COc1ccc(N2CCN(S(=O)(=O)c3c(C(=O)N4CCOCC4)c(C)n(C)c3C)CC2)cc1,7,0.64,1%,-0.3,-1.6,2.9,1.6
CCC(c1nnnn1C(C)(C)C)N(Cc1cccs1)Cc1cc2cc(C)c(C)cc2n2nnnc12 (stereo not drawn),x,0.73,x,0.4,1.3,x,-0.2
COc1ccc(C(C(=O)NC(C)(C)C)N(C[C@H]2CC[C@@H]([C@@H]3CC[C@H](CO)O3)O2)C(=O)c2ccccc2)cc1 (stereo partly drawn),2,0.71,5%,x,0.3,-3.4,x
Cc1cc(C)cc(NC(=S)N2CC(C)OC(C)C2)c1 (stereo not drawn),2,0.7,0%,1.0,0.3,0.1,3.8
Cc1ccccc1S(=O)(=O)Nc1ncnc2ccccc12,2,0.65,x,0.5,0.3,0.5,5.4
COc1ccc(COCC(O)CN2CCC(C(N)=O)CC2)cc1OC (stereo not drawn),2,0.69,3%,1.0,2.9,-5.1,-0.6

# Hits appear at their usual frequency; overall some 2.1% were active at least once.
